Screening results as filed in PubChem.
UCH37 DUB inh – inhibitors of human UCH37 deubiquitinase, primary screen, biochemical, Ub-AMC cleavage, fluorescence; 330,000 tested, 0.33% active; Ubiquitin carboxyl-terminal hydrolase isozyme L5 (Homo sapiens), Q9Y5K5; purified proteasome/UCH37; AID 588478, 2011; inhibition, % (concentration not given with the values);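 active = mean of two replicates above 20%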;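 also: 0% = compound-free wells with enzyme and 100% = wells lacking proteasome; stock transfer was 100 nL into about 20 µL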
Target sequence (Q9Y5K5 whole entry, looked up): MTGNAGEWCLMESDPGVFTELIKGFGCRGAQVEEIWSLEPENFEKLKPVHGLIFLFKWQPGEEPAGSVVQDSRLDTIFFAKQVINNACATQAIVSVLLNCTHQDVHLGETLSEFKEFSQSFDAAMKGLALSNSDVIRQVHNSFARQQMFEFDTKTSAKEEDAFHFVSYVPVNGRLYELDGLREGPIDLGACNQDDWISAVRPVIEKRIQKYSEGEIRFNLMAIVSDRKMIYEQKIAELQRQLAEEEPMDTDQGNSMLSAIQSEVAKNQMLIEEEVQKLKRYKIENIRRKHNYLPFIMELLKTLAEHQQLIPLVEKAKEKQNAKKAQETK
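Material: human UCH37 enzyme supplied as purified proteasome complex. Measure: % inhibition of Ub-AMC cleavage fluorescence. Medium: pH 7.4 Tris-HCl (50 mM) with ovalbumin, ATP-MgCl2, DTT. Times: 30 min preincubation with enzyme, 25 min cleavage at room temperature. Detection: AMC fluorescence intensity at 355/460 nm.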
LANA-H2A inh – blockers of LANA interaction with H2A/H2B – biochemical, FP readout, HTS, primary screen; Protein LANA1 (Human herpesvirus 8 type P (isolate GK18)), Q9QR71; cell-free LANA-H2A/H2B peptide, fluorescence polarization; inhibition, % (no concentration beside the values); 320,000 tested, 0.6% active; in the data active = inhibition mostly above about 10%, no sharp cut-off; inactive = mostly below about 6.7%;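 also: stock transfer was 7.5 nL into about 10 µL; 0% = median of vehicle wells and 100% = median of positive control wells; one replicate is shown; the record names a cut of 25% in any replicate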
T cruzi inh – inhibitors of intracellular T. cruzi growth, primary screen, luminescence, NIH3T3 host cells | inhibition, % (concentration not given with the values) | 300,000 tested, 1.4% active | T. cruzi beta-gal in NIH3T3, 90 h;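 active = mean inhibition across valid replicates above about 55%, limit read from the data; inconclusive = mean below that limit but half or more replicates reach it; inactive = mean below it, under half of replicates reach it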;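 also: signal also drops with host cell toxicity which is not excluded here; 0% = plate median of DMSO wells and 100% = zero luminescence signal; higher percent means less beta-gal luminescence so fewer parasites; stock transfer was 50 nL into about 50 µL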
B2AR ag – beta2AR agonists driving receptor internalization, primary screen, cell-based, FAP fluorogen, flow cytometry. 340,000 tested, 0.43% active. AID 504454, 2011. response, % (concentration not given with the values). Am2.2-beta2AR cells; reference of the scale not given here;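 active = response above a set limit, near 3 SD of response in nonfluorescent compounds, cut at about 42% in these data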;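 also: stock transfer was 100 nL into about 11 µL; a reference agonist was the positive control; negative values mostly stem from fluorescent compounds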
Target sequence (P07550 whole entry, looked up): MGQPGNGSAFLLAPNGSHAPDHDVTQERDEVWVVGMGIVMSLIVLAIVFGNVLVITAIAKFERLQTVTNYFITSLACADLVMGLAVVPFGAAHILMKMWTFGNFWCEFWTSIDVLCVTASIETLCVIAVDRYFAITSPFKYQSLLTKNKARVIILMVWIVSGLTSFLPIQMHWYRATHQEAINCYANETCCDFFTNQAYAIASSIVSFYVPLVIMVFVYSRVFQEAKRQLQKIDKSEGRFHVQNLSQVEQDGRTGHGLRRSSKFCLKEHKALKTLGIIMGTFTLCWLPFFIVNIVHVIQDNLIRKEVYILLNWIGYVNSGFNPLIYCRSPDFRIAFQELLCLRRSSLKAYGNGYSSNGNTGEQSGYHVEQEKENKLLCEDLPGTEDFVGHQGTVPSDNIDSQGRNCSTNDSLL
Calb FLC – C. albicans growth inhibition with fluconazole, primary screen, CaCi-2 strain, Alamar Blue fluorescence. growth inhibition, % (no concentration beside the values). 300,000 tested, 0.57% active. AID 1979, 2009. C. albicans CaCi-2 (fluconazole-resistant clinical isolate) + fluconazole, 48 h;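 active = most replicates above 75%; inconclusive = exactly half above 75%; inactive = most below 75%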;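 also: all wells also contain fluconazole at 8 µg/ml as a sub-toxic cotreatment; 0% = median of DMSO wells and 100% = median of geldanamycin control wells; wells of about 8 µL received 7.5 nL stock; the first replicate is given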
Bfl-1 A1 inh – caspase 3/7 activation in MEF A1-2A-BIM cells, primary screen, A1 inhibitor project, cell-based, luminescence, HTS | Caspase-Glo 3/7 luminescence, 3 h; percent of clofoctol response, vehicle zero | caspase activation, % (concentration not given with the values) | 330,000 tested, 0.066% active;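 active = over half of replicate activation scores above 10%, or exactly half above 10 with the replicate mean above 10; inconclusive = replicate mean below 10 yet half the replicates above 10; inactive = over half of replicates below 10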;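 also: wells of about 30 µL received 50 nL stock; many hits fall short of the cut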
Beta cell apopt – inhibitors of cytokine-induced beta cell apoptosis, primary screen, luminescence; INS-1E cytokine-induced death, ATP luminescence, 48 h; percent of positive-control rescue, neutral wells zero; protection from apoptosis, % (test concentration not listed); 300,000 tested, 0.8% active; AID 435005, 2010;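 active = all replicates at 75% or more, or half of them and the mean; inconclusive = half reach 75% but not the mean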;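 also: 0% = cytokine-treated negative control wells and 100% = positive control rescue; higher means more ATP so stronger rescue from cytokine killing; wells of about 40 µL received 100 nL stock; the first replicate is given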
RanGTP-Impb inh – inhibitors of RanGTP-importin-beta interaction, primary screen, biochemical, FRET, CFP-Ran, YFP-importin-beta, homogeneous; cell-free CFP-Ran/YFP-importin-beta FRET ratio; inhibition, % (concentration not given with the values); AID 2216, 2009; 300,000 tested, 1.1% active;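 active = most replicates above 15%; inconclusive = exactly half above 15%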;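 also: 0% = DMSO wells and 100% = Ran loaded with GDP instead of GTP; wells of about 40 µL received 100 nL stock; the first replicate is given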
* marks the source's active call; other numbers are inactive results; ? = inconclusive; . = not tested or not shown. Compounds as they come (roughly 4.3% active in at least one column).

molecule	Calb FLC	UCH37 DUB inh	RanGTP-Impb inh	Beta cell apopt	B2AR ag	Bfl-1 A1 inh	T cruzi inh	LANA-H2A inh
CC(=O)N1CCc2cc(S(=O)(=O)CCC(=O)Nc3ccc4c(c3)OCCO4)ccc21	-9	0.0	5.9	-1	6	0.7	-1	3.7
O=C(CSc1nnc(CNC(=O)c2c(F)cccc2F)o1)NCc1ccc(F)cc1	5	1.3	5.7	-1	-4	-1.3	0	-0.3
NNC(=O)CNC(=O)CNS(=O)(=O)c1ccccc1	-25	0.5	2.7	-5	-7	0.7	-7	2.8
Cc1ccc(S(=O)(=O)N2CCN(Cc3cccc(F)c3)CC2)cc1	0	5.2	2.3	-3	-2	0.8	1	-1.7
O=c1[nH]c(CSc2nnc(-c3cccnc3)n2C2CCCCC2)nc2ccccc12	?	1.1	?	-3	9	-0.2	4	5.2
Cc1noc(C)c1C(=O)N1CCN(c2ncccn2)CC1	1	-0.4	6.7	0	-17	0.0	3	-9.0
CC1=C(C(=O)OC2CCCCC2)C(c2ccc(N(C)C)cc2)NC(=O)N1 (configuration not stated)	2	2.2	-4.5	1	6	-0.4	-3	0.0
CCOc1ccc(CCNc2nc3ccccc3n3c(C)nnc23)cc1OCC	-3	-22	1.9	1	-14	2.0	16	-1.0
CC(C)CNC(=O)COc1ccccc1[N+](=O)[O-]	2	4.5	2.7	4	-7	0.2	-3	-3.0
COc1ccccc1CN(C)CC(=O)Nc1ccccc1-c1ccccc1	33	4.7	-2.9	-2	3	-0.1	5	-0.8
COC(=O)c1cc(Br)c(=O)n(Cc2ccc(C(=O)O)cc2)c1	-4	-2.1	1.0	-5	6	-0.1	3	-6.0
COc1cccc(NC(=S)N(CCc2c(C)[nH]c3ccccc23)Cc2ccco2)c1	-6	3.6	-3.0	-10	5	-0.1	18	-5.6
Cc1ccc(Nc2nnc(SC(C)C(=O)Nc3c(C)n(C)n(-c4ccccc4)c3=O)s2)cc1 (configuration not stated)	2	6.1	-1.2	1	-7	0.7	8	1.6
COc1ccc(CN2C(=O)c3cccnc3C2Nc2cc(Cl)ccc2OC)cc1 (configuration not stated)	-11	2.3	8.2	0	-2	-0.2	13	-8.1
O=C(NC(=S)Nc1cc([N+](=O)[O-])ccc1O)c1cccnc1	9	11	1.1	1	1	-1.9	-12	4.5
O=C(CNC(=O)c1cc(Cl)cc([N+](=O)[O-])c1)NC1CC1	.	3.1	.	1	3	0.6	.	-2.1
NC(=O)COC(=O)c1cccc2c1-c1ccccc1C2=O	0	.	-4.0	-9	2	-0.2	2	-6.5
Cc1cc2nnc(SCc3ccccc3)n2c(N)n1	16	1.5	8.1	-4	-9	-0.9	-4	-11
Cc1onc(-c2ccccc2Cl)c1C(=O)NNC(=O)c1nn(C)cc1Cl	-3	1.7	-4.8	3	2	-0.4	-9	4.9
COc1ccccc1N(CC(O)COc1ccc(C)cc1)S(=O)(=O)c1ccccc1 (configuration not stated)	-9	1.4	-1.6	-1	-6	1.8	38	-1.2
CCN(CCCNC(=O)C1CCN(S(=O)(=O)N2CCC3(CC2)OCCO3)CC1)c1ccccc1	4	3.1	-0.4	-6	3	0.3	-11	2.9
CCN1C(=O)/C(=C/N(C(C)=O)c2ccccc2)N(c2ccccc2)C1=S	5	5.7	-0.4	-10	-28	0.4	11	-2.3
Cc1csc(NC(=O)CSc2nc(=O)n(CCCN(C)C)c3c2CCC3)n1	-16	4.4	1.3	1	2	-0.1	13	4.4
COc1ccc(NC(=O)N2CCN(C(=O)C(Cc3ccc(F)cc3)NC(C)=O)CC2)cc1 (configuration not stated)	-2	2.8	0.2	-2	1	-1.4	-20	-0.8
CCOc1ccc(NC(=O)C2C(C(=O)O)C3(Cl)C(Cl)=C(Cl)C2(Cl)C3(Cl)Cl)cc1 (configuration not stated)	-40	2.8	0.9	.	0	-1.0	-11	-6.8
COc1cc(/C=C/C(=O)O)ccc1OS(=O)(=O)c1c(C)cc(C)cc1C	.	2.2	.	-3	5	0.2	.	-5.1
CCn1cc(C(=O)N2CCOCC2)c(=O)c2cc(S(=O)(=O)N(C)C3CCCCC3)ccc21	0	9.6	0.5	-6	0	-0.4	2	2.2
Cc1nn(-c2ccccc2)c(C)c1NC(=O)COC(=O)CC(C)c1ccccc1 (configuration not stated)	.	1.8	-1.2	6	3	0.0	-15	4.5
COc1ccc(CN=C2NC(=O)CC(C(=O)Nc3cc(C)cc(C)c3)S2)cc1 (configuration not stated)	2	4.0	-3.7	-4	25	0.2	-1	2.6
Cc1cc(Cl)ccc1Oc1ncnc2oc(-c3ccccc3)cc12	-1	-9.3	4.2	5	10	0.9	-3	-0.2

Next section:
molecule	Calb FLC	UCH37 DUB inh	RanGTP-Impb inh	Beta cell apopt	B2AR ag	Bfl-1 A1 inh	T cruzi inh	LANA-H2A inh
CC(Sc1nnc(N)s1)C(=O)NC1CCCCC1C (configuration not stated)	-6	0.8	6.5	-1	-1	0.2	-5	-1.2
CCOC(=O)C1CCN(C(=O)c2ccc(CNS(=O)(=O)c3ccc(OC)cc3)cc2)CC1	-4	3.7	1.4	1	4	0.5	1	-2.2
COc1ccc(N2CCN(c3ccc4nnc(CCC(=O)Nc5ccc(C)cc5)n4n3)CC2)cc1	3	-0.7	6.0	-8	22	-0.1	7	-1.5
Cc1cc(N2CCOCC2)nc2ccc(NC(=S)NCCN(C)C)cc12	-2	-37	2.9	3	-1	0.2	-5	-2.5
COc1ccccc1N1CCN(Cc2cc(=O)n3ccsc3n2)CC1	1	-0.1	9.4	-2	-3	1.0	-1	2.8
N#C/C(=C/c1ccc(N2CCOCC2)o1)C(=O)Nc1ccccc1	27	19	31*	.	0	.	-1	.
CC(=O)Nc1ccc(S(=O)(=O)Nc2cc(-c3ccccc3)nn2C)cc1	-9	-1.8	0.6	1	-3	0.0	3	2.8
CC(=O)NC(CC(=O)O)c1ccc(F)cc1 (configuration not stated)	-3	.	-1.2	-7	-5	0.5	-25	4.6
Cc1ccc(Nc2cc(-c3ccccc3)nc3ncnn23)cc1	-2	-17	3.4	-8	2	-0.9	4	2.5
CCOC(=O)c1ccc(NC(=O)c2cc3c(C)nn(-c4ccccc4Cl)c3s2)s1	-7	-199	-0.7	-7	14	-0.3	0	8.7
CCOP(=O)(OCC)c1ccccc1OCP(C)(=O)COc1ccccc1P(=O)(OCC)OCC	-2	-1.1	3.4	-3	1	1.0	-5	-1.3
O=C(Nc1nc2ccsc2c(=O)s1)c1ccc(F)cc1	-4	-4.0	-5.6	-6	1	-7.7	18	1.4
Cc1cc(OCCN2CCCCC2)nc2ccccc12	1	3.7	5.2	-2	.	0.6	13	-3.7
CCOC(=O)N1CCC(n2c(SCC(=O)N3CCCC3)nc3ccccc3c2=O)CC1	-16	2.6	?	0	-3	0.2	32	-2.0
CC(C)c1nc(SCC(=O)NCc2ccccc2)n[nH]1	-6	2.6	.	.	-3	1.3	.	-0.7
COc1ccc(OC)c(CN2CCN(C(=O)[C@@H](NC(=O)c3cccc(C)c3)C(C)C)CC2)c1	.	0.8	.	1	1	0.1	.	-4.6
COc1ccc(/C=N/NC(=O)c2cccc(Br)c2)cc1CSc1ccccn1	9	.	-0.4	3	-3	0.1	-2	0.0
COc1ccc(C(=O)OCC(=O)Nc2nnc(-c3ccccc3)o2)cc1	63	1.5	3.8	0	7	-1.0	-16	-3.7
c1csc(-c2noc(CN3CCc4sccc4C3)n2)c1	-9	0.3	?	6	-3	0.7	34	-12
CSc1nc(N)nc(SC2C=CCCC2)c1C#N (configuration not stated)	35	-0.1	3.6	-3	-15	-0.5	24	-1.2
Cc1ccc2nc(-c3ccccn3)cc(C(=O)NC(C)C(C)(C)C)c2c1 (configuration not stated)	9	-7.6	-0.9	-2	-1	-0.2	6	0.4
O=C(OCc1cc2ccccc2[nH]c1=O)c1ccco1	-3	1.2	-1.3	-3	2	-0.3	0	-0.8
COc1ccc(Cc2n[nH]c(=S)n2NC(=O)Nc2ccc(C)cc2)cc1	1	3.8	3.2	-6	5	0.3	-3	13
O=[N+]([O-])c1cc(/C=N/N2CCN(Cc3ccccc3)CC2)ccc1Cl	9	.	-0.7	9	-7	-0.6	21	-2.5
CC(=O)Nc1ccc(S(=O)(=O)Nc2nccc(C3Cc4ccccc4C(=O)O3)n2)cc1 (configuration not stated)	-4	-0.8	4.6	-5	5	-0.5	-16	-0.9
COc1ccc(C2CC(c3cccs3)=Nc3ccccc3S2)cc1OC (configuration not stated)	-5	3.3	-2.7	-1	7	-1.0	5	-3.1
CCOc1ccccc1N1CCN(C(=O)c2cc(S(=O)(=O)N(C)C)ccc2N2CCCC2)CC1	.	-0.5	.	7	4	1.5	.	0.7
COC(=O)c1ccc(-n2ccnc2)cc1	8	3.3	7.0	-5	-1	0.9	-8	3.3
Cc1csc(C(C#N)C(=O)c2ccncc2)n1 (configuration not stated)	-1	11	-4.9	-1	1	-0.3	-4	-2.1
Cc1ccccc1-c1ccc(C=Nc2c(C)n(C)n(-c3ccccc3)c2=O)o1	16	3.1	-1.5	-10	10	1.3	-6	-3.3

(listing goes on)
molecule	Calb FLC	UCH37 DUB inh	RanGTP-Impb inh	Beta cell apopt	B2AR ag	Bfl-1 A1 inh	T cruzi inh	LANA-H2A inh
O=C(N/N=C/c1c(F)cccc1Cl)C(=O)N1CCCCCC1	-10	.	-1.3	-2	-1	0.5	-6	-1.3
COCCNC(=O)CN(C)S(=O)(=O)c1ccc2c(c1)OCCO2	18	3.0	-1.6	-2	-3	0.4	-6	-4.2
Cc1c(C(=O)NC(C(C)C)C(C)C)cccc1[N+](=O)[O-]	17	0.4	-1.2	2	1	-1.2	-9	0.8
Cc1ccc(C(=O)/C=C/c2cn(CC(O)CN3CCOCC3)c3ccccc23)cc1 (configuration not stated)	.	-3.6	.	-2	5	0.8	.	2.8
COCCn1c(SCC(=O)NNC(=O)c2cc(Cl)ccc2OC)nnc1-c1ccncc1	.	4.2	.	-2	-7	1.9	.	-0.5
CN(C)/C=C/C(=O)c1cccc(C(F)(F)F)c1	-1	16	0.5	-2	-8	-1.1	-19	.
O=C(c1ccc(Sc2ccc(F)cc2)c([N+](=O)[O-])c1)N1CCOCC1	9	5.2	-2.6	-22	-21	-0.3	-7	-3.1
CCOC(=O)C1=C(COC(=O)COc2ccc(C#N)cc2)NC(=O)NC1C (configuration not stated)	-6	3.3	-6.9	.	6	0.4	-5	-5.2
O=c1c2ccccc2ncn1-c1ccc2c(c1)OCCO2	-23	1.3	-1.8	-5	-4	-0.6	-15	3.1
O=C(CSc1ncn[nH]1)N1CCN(S(=O)(=O)c2ccccc2)CC1	0	-0.6	-3.5	-6	-1	0.2	-9	10
